Compound activity from PubChem.
TRPML1 blocker: qHTS for Inhibitors of the Human Mucolipin Transient Receptor Potential 1 (TRPML1); Mucolipin-1 (Homo sapiens), Q9GZU1; TRPML1-inducible cells, Ca2+ dye fluorescence, FDSS; hits give low values; inhibition of EC80 agonist-evoked calcium signal; activity change, negative = inhibition, % (no concentration beside the values); 390,000 tested, 0.02% active; AID 624415, 2012; in the data active means activity change below about -50%; inconclusive means about -30% to -50%; inactive means above about -30%;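 also: stimulus is agonist 54-4 at its EC80 concentration; % is scaled to controls: 0 for no effect and ±100 for the full control effect; compound concentration not given in the record; the text of the record puts the active cut at -80%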
Target sequence (Q9GZU1 whole entry, looked up): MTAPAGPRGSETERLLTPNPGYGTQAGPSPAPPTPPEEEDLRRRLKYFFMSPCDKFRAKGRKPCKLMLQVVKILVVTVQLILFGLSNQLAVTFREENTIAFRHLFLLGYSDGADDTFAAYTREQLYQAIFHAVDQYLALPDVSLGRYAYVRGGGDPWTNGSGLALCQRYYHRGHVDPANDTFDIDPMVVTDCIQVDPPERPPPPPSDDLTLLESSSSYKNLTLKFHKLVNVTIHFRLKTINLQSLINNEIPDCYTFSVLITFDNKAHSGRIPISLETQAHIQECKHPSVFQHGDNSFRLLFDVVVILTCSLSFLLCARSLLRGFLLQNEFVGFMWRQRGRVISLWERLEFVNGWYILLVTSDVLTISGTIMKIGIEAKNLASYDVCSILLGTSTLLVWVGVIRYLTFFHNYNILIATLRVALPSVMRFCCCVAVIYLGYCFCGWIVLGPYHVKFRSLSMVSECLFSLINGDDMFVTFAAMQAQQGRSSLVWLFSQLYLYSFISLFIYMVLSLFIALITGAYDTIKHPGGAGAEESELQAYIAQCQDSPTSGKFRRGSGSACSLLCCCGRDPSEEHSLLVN
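Tet-induced TRPML1-DL cells loaded with Ca8 no-wash calcium dye were read kinetically on FDSS. Compound addition was followed by EC80 agonist 54-4 (4 uM final); inhibition was read over 110 s.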
TRPML1 ag: qHTS for Agonists of the Human Mucolipin Transient Receptor Potential 1 (TRPML1); Mucolipin-1 (Homo sapiens), Q9GZU1; TRPML1-expressing cells, Ca2+ dye fluorescence, FDSS; host cell line not named in the record; reference of the full effect not given here; activation, % (test concentration not listed); 410,000 tested, 0.12% active; AID 624414, 2012; in the data active = activation above about 50%; inconclusive = about 30% to 50%; inactive = below about 30%; also: 0% is about no effect; the text of the record puts the active cut at 80%
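In this qHTS format, compounds were pin-transferred onto Ca8-dye-loaded TRPML1-DL cells induced with Tet overnight, and intracellular Ca2+ fluorescence was recorded kinetically for 110 s after a 10 s baseline. A subsequent 4uM final 54-4 (EC80) addition followed by a second 110 s read served as the antagonist phase.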
* hit, by the source's call. Only part of the results is shown; count on the stated rates, not on these rows.

SMILES	TRPML1 blocker	TRPML1 ag
COc1ccccc1NC(=O)Cn1c(=O)n(CCc2ccccc2)c(=O)c2sc3ccccc3c21	-6	-0.9
COc1ccc(C2=NN(CC(=O)NCCc3ccc(OC)c(OC)c3)C(=O)CC2)cc1	13	0.8
Cc1ccc(-c2nnc(SCc3ccccc3C)o2)cc1	-7	-0.9
O=C(Nc1ccc(Br)cc1)c1ccc(Br)c(S(=O)(=O)NCc2ccccc2)c1	-9	2.4
Cc1ccc(CNC(=O)C(=O)NCC(c2ccco2)S(=O)(=O)c2ccccc2)cc1 (stereo not given)	4	0.0
COc1cc2ccccc2cc1C(=O)Nc1cc(-c2nc3ccccc3o2)ccc1C	-9	0.9
CN(Cc1ccccc1)C(=O)Cn1c(=O)c2cccn2c2ccc(F)cc21	-8	0.5
O=[N+]([O-])c1ccc(O/N=[N+](\[O-])N2CCCC2)c([N+](=O)[O-])c1	5	1.2
CC(=O)c1ccc(N2CCN(C(=O)C3CCN(S(=O)(=O)c4c(C)noc4/C=C/c4ccccc4F)CC3)CC2)cc1	-7	0.6
Cc1ccc(Cn2c(C(=O)Nc3ccc(Cl)cc3)cc3sccc32)cc1	-17	0.3
COc1ccc(OC)c(NC(=O)c2oc(=O)c3ccccc3c2-c2ccccc2)c1	-1	-0.7
CCCCNC(=O)C1CCC(Cn2c(=O)c3sccc3n(CC(=O)Nc3ccccc3)c2=O)CC1 (stereo not given)	-12	1.5
CCOc1ccc(CN2CCc3nc(Nc4ccc5c(c4)OCCO5)ncc3C2)cc1	-1	-0.2
Cc1ccc(S(=O)(=O)c2nnn3c2nc(N2CCCC2)c2sccc23)cc1	9	-0.4
COc1ccc(NS(=O)(=O)c2ccc3[nH]c(=O)ccc3c2)cc1OC	48	-0.5
Cc1cc(C)c(S(=O)(=O)Nc2ccc(-c3ccc(N4CCCCC4)nn3)cc2)cc1C	62	0.8
Cn1c(=O)c2c(-c3ccccc3Br)n(Cc3ccccc3)cc2n(C)c1=O	61	0.1
CCC1CCCCN1CCCNC(=O)c1ccc2c(c1)N(Cc1ccc(Cl)cc1)C(=O)c1ccccc1S2(=O)=O (stereo not given)	-11	2.1
COc1ccc(C(=O)Nc2c(C(=O)c3ccccc3)oc3ccccc23)cc1	9	0.7
COc1ccc(-c2cc(C(C)=O)c(C)n2CCC(=O)NCc2ccc(F)cc2)cc1	7	2.8
CNC(=O)C1CCN(c2nc3ccccc3nc2C(F)(F)F)CC1	2	-0.8
Cc1ccc(-n2ncc3c(NCC(C)C)ncnc32)c(C)c1	4	2.4
COCCCN1CN=C(NS(=O)(=O)c2ccc(NC(C)=O)cc2)NC1	3	-0.2
CCC(C(=O)Nc1ccc(C(C)C)cc1)n1nc(C)n2c(cc3cc(C)ccc32)c1=O (stereo not given)	58	0.8
CC(C)c1ccc(C2N=C(N)Nc3nc4ccccc4n32)cc1 (stereo not given)	49	0.0
CCc1ccc(NC(=O)C2CCCN(S(=O)(=O)c3c(C)noc3/C=C/N(C)C)C2)cc1 (stereo not given)	-5	1.7
CCCn1c2ccccc2c2cnn(CC(=O)NCc3ccccc3Cl)c(=O)c21	20	1.5
CC(=O)c1ccc(NC(=O)c2cc(C)nc3c2c(C)nn3-c2ccc(C)cc2)cc1	51	4.1
Cc1ccc(N2CCN(c3nc4c(S(=O)(=O)c5ccc(C)c(C)c5)nnn4c4ccccc34)CC2)c(C)c1	-5	-0.3
CCOC(=O)c1[nH]c(C)c(CCC(=O)Nc2ccc(N(CC)CC)cc2C)c1C	17	-0.9
CC1CCCN(S(=O)(=O)c2ccc3c(c2)CCN3C(=O)CCC(=O)O)C1 (stereo not given)	-11	1.2
Clc1ccc(C(c2ccccc2)c2c[nH]c3ccccc23)s1 (stereo not given)	3	3.1
Cc1ccc(-n2c(SCC(=O)Nc3cccc(F)c3)nc3c(oc4ccccc43)c2=O)cc1C	0	2.8
COc1cccc(CNC(=O)c2cccc(-n3c(C)nc4cccnc43)c2C)c1	-9	1.1
O=C(CNC(=O)c1ccccc1Cl)OCc1cc(=O)n2nc(C3CC3)sc2n1	4	0.0
Cc1cccc(NC(=O)CSc2nc3ccc(NC(=O)c4ccccc4)cc3s2)c1	11	-0.1
Cn1c(=O)c2c(nc(Oc3ccccc3)n2Cc2c(Cl)cccc2Cl)n(C)c1=O	-4	-0.3
Cc1cc(C)cc(NS(=O)(=O)c2ccc3[nH]cc(C(=O)N4CCCCCC4)c(=O)c3c2)c1	3	2.1
O=C(NCCSc1c(-c2ccc(F)cc2)[nH]c2ccccc12)c1ccc(S(=O)(=O)N2CCOCC2)cc1	5	2.4
CC(=O)N1CCc2cc(Br)cc(S(=O)(=O)N3CCC(C)CC3)c21	8	1.8
Cc1ccccc1Nc1c(-c2cccs2)nc2cccc(C)n12	0	1.4
Cc1nc2c(C(=O)NCCc3ccc(Cl)cc3)c[nH]n2c(=O)c1Cc1ccccc1F	12	-0.8
CC(C)Oc1ccc(C(=O)NCCc2csc(-c3cccc(F)c3)n2)cc1	28	1.3
CCCCS(=O)(=O)c1oc(-c2ccc(F)cc2)nc1S(=O)(=O)c1ccc(C)cc1	57	-0.1
CC1CCN(c2nc3c(S(=O)(=O)c4ccccc4)nnn3c3ccsc23)CC1	42	0.9
CC(C)(C)C(=O)OCc1cc(=O)n2nc(C3CCCCC3)sc2n1	17	-0.9
CCNc1nc(OC)nc(Oc2ccc(=O)[nH]n2)n1	1	1.1
Cc1cccc(-c2nc(SCC(=O)N(C)c3ccccc3)c3c(=O)n(C)c(=O)n(C)c3n2)c1	-7	-0.8
COc1ccc(Cl)cc1N(C)C(=O)Cn1cnc2sc(C)c(S(=O)(=O)N3CCN(c4ncccn4)CC3)c2c1=O	2	-0.8
COc1cccc(CN2C(=O)c3ccccc3C2C(=O)NCCc2ccc(OC)c(OC)c2)c1 (stereo not given)	-26	-0.6
CCCCNC(=O)CCCn1c(=O)c2ccccc2n(Cc2c(C)cc(C)cc2C)c1=O	-6	0.1
COc1ccc(NC(=O)CCc2nc3cccnc3n2Cc2cccs2)c(OC)c1	-9	2.5
COc1ccc2c(Sc3ccc(C)cc3)c(C(=O)NCCc3ccccc3)[nH]c2c1	3	-0.2
COCCCn1c(=N)c(C(=O)NCc2cccnc2)cc2c(=O)n3cc(C)ccc3nc21	-7	-0.5
O=C(Cc1ccc(Cl)cc1)NCC(c1cccs1)S(=O)(=O)c1ccc(Cl)cc1 (stereo not given)	14	0.3
CN(C)C1(CNC(=O)COc2ccc([N+](=O)[O-])cc2)CCCCC1	-1	-0.2
CCC(C)NC(=O)C(=O)Nc1c2c(nn1-c1ccccc1)CS(=O)(=O)C2 (stereo not given)	64	-0.1
COc1cccc(C(=O)Nc2ccccc2-c2nnc(-c3cccc(OC)c3)o2)c1	3	2.3
CCCCNC(=O)C1CCN(S(=O)(=O)c2ccc3c(ccn3CC)c2)CC1	-13	1.1
CCOc1ccccc1NC(=O)c1c(NC(=O)c2ccccc2)sc2c1CCCC2	16	-1.0
Next part.
SMILES	TRPML1 blocker	TRPML1 ag
Cc1ccccc1NC(=O)c1oc2c(c1C)-c1nn(Cc3cccc(Cl)c3)cc1CC2	62	2.1
Cc1c(Cl)cccc1NC(=O)C(=O)NCCc1csc2nc(-c3ccccc3F)nn12	-9	5.2
COCCn1c(=O)[nH]c2cc(C(=O)Nc3ccc(OC)cc3)ccc2c1=O	1	0.7
CCOc1ccc(C(=O)c2cn(CC(=O)Nc3ccc(OC)cc3)c3cc4c(cc3c2=O)OCCO4)cc1	-3	-0.1
CCOC(=O)c1cnc2nc(NCc3cccc(Br)c3)[nH]n2c1=O	-16	-0.6
Cc1oc2ncn(C)c(=O)c2c1C(=O)N1CCN(c2ccccc2F)CC1	-8	0.1
Cc1cccc(C)c1NC(=O)Cn1nnc(C(=O)NCc2ccc(F)cc2)c1N	27	0.2
COc1ccc(N(Cc2cccs2)C(=O)COc2cccc(C)c2C)cc1	-3	2.3
O=C(Nc1nnc(SCc2cc(=O)c3ccccc3[nH]2)s1)c1ccccc1	-25	2.5
CCc1ccc2ncc3c(-c4ccc(C)cc4)nn(CC(=O)NCc4ccccc4)c3c2c1	1	0.0
CC(=O)Nc1ccc2nc(SCCOc3ccccc3)sc2c1	1	-0.1
Cc1ccc(Nc2c(-c3ccc(N4CCOCC4)cc3)nc3ccc(Cl)cn23)cc1	-11	0.8
Cc1cccc(NC(=O)c2oc3ccc(S(=O)(=O)N4CCC5(CC4)OCCO5)cc3c2C)c1C	-11	1.5
Cc1ccc2oc(=O)c3cnn(CC(=O)NCc4ccccc4Cl)c3c2c1	0	-0.7
CCCOc1cccc(C(=O)Nc2cccc(-c3nc4ncccc4o3)c2C)c1	-6	2.9
Cc1ccc(C)c(NC(=O)n2ncc3cc(Cl)ccc32)c1	-7	-1.2
COc1ccccc1C(=O)N1c2ncnn2C2(CCCCC2)[C@@H]2CCCC[C@@H]21	52	1.1
CCOc1ccc(-c2nnc(SCC(=O)c3ccccc3)n2-c2ccccc2)cc1	6	-0.1
CC(=O)Nc1c(C)nn(-c2ccccc2)c1N1CCC(C(=O)Nc2ccccc2F)CC1	9	-0.1
O=C(c1cnn(-c2ccc(F)cc2)c1-n1cccc1)N1CCN(c2cccc(Cl)c2)CC1	-1	2.4

Ordered by count of non-hydrogen atoms (highest first): some entries from above.
SMILES	TRPML1 blocker	TRPML1 ag
CCOc1ccc(C(=O)c2cn(CC(=O)Nc3ccc(OC)cc3)c3cc4c(cc3c2=O)OCCO4)cc1	-3	-0.1
Cc1cccc(NC(=O)c2oc3ccc(S(=O)(=O)N4CCC5(CC4)OCCO5)cc3c2C)c1C	-11	1.5
CCc1ccc2ncc3c(-c4ccc(C)cc4)nn(CC(=O)NCc4ccccc4)c3c2c1	1	0.0
O=C(c1cnn(-c2ccc(F)cc2)c1-n1cccc1)N1CCN(c2cccc(Cl)c2)CC1	-1	2.4
Cc1c(Cl)cccc1NC(=O)C(=O)NCCc1csc2nc(-c3ccccc3F)nn12	-9	5.2
Cc1ccc(Nc2c(-c3ccc(N4CCOCC4)cc3)nc3ccc(Cl)cn23)cc1	-11	0.8
CCCOc1cccc(C(=O)Nc2cccc(-c3nc4ncccc4o3)c2C)c1	-6	2.9
COc1ccccc1C(=O)N1c2ncnn2C2(CCCCC2)[C@@H]2CCCC[C@@H]21	52	1.1
COc1ccc(N(Cc2cccs2)C(=O)COc2cccc(C)c2C)cc1	-3	2.3
CCOC(=O)c1cnc2nc(NCc3cccc(Br)c3)[nH]n2c1=O	-16	-0.6
CC(=O)Nc1ccc2nc(SCCOc3ccccc3)sc2c1	1	-0.1
Cc1ccc(C)c(NC(=O)n2ncc3cc(Cl)ccc32)c1	-7	-1.2

Entries of single compounds, looked up by structure. Values in the order: TRPML1 blocker, TRPML1 ag
COc1ccc(NS(=O)(=O)c2ccc3[nH]c(=O)ccc3c2)cc1OC in the list: 48, -0.5
CCc1ccc(NC(=O)C2CCCN(S(=O)(=O)c3c(C)noc3/C=C/N(C)C)C2)cc1 (stereo not given) in the list: -5, 1.7
CCC(C)NC(=O)C(=O)Nc1c2c(nn1-c1ccccc1)CS(=O)(=O)C2 (stereo not given) in the list: 64, -0.1

The results go on:
SMILES	TRPML1 blocker	TRPML1 ag
CCCc1ccc(-c2ccc(C(=O)Oc3ccc(OCC)cc3)cc2)nc1	-1	0.4
c1ccc(N2CCN(Cc3cccn3-c3nnc(N4CCN(C5CCCCC5)CC4)s3)CC2)cc1	12	2.2
CCCCOc1ccc(S(=O)(=O)Nc2ccc(-c3ccc(N4CCCCC4)nn3)cc2)cc1	-10	-0.8
COc1ccc(-c2nc(SCC(=O)NCCCc3ccccc3)n[nH]2)cc1	22	3.1
CCN(CC)C(=O)c1sc2c(c1C)c(=O)n(-c1ccccc1)c(=O)n2Cc1cc(=O)n2ccccc2n1	-9	-0.2
Cc1ccc2nc(SCc3nc(-c4ccc(Cl)cc4)no3)[nH]c2c1	41	0.8
O=S(=O)(NCCc1csc2nc(-c3ccc(Cl)cc3)nn12)c1ccc(Oc2ccccc2)cc1	-11	1.1
Cc1ccc(OCC(=O)Nc2cc(-c3nc4ccccc4[nH]3)ccc2C)c(C)c1	8	3.6
CCc1ccc2oc(C(=O)Nc3ccccc3OC)cc(=O)c2c1	33	-0.3
CC(=O)c1ccc(N2CCN(C(=O)CCn3cnc4onc(-c5ccc(F)cc5)c4c3=O)CC2)cc1	16	0.9
Cc1ccsc1CN(C(=O)c1oc2cc(Br)ccc2c1C)C1CCS(=O)(=O)C1 (stereo not given)	27	2.8
Cc1ccc(-c2nc3cc(Cl)ccc3o2)cc1NC(=O)c1cc2ccccc2o1	-1	-0.8
CC(C)(C)OC(=O)N1CCC(c2c(C(=O)NCc3ccccc3)cnn2-c2cccc(F)c2)CC1	23	-0.9
O=C(CSc1nccn1Cc1ccc(Cl)cc1)Nc1ccc2c(c1)OCCO2	36	1.3
COc1ccc(-c2cnc(NCc3ccc(C)cc3)n2C)cc1	0	0.3
COc1ccc(OCC(=O)Nc2cc(-c3nc4ccccc4o3)ccc2Cl)cc1	9	-0.7
COc1cccc(-c2nc(SCC(=O)NCC3CCCO3)c(-c3ccc(C)cc3)[nH]2)c1 (stereo not given)	31	1.8
CC(C)c1ccc(Nc2nc3c(S(=O)(=O)c4ccc(Br)cc4)nnn3c3ccsc23)cc1	-7	-0.6
COc1ccc(Nc2ncnc3onc(C)c23)c(OC)c1	-10	0.1
COC(=O)c1c(C)oc2ccc(N(C(=O)c3ccncc3)S(=O)(=O)c3cc(C)c(C)cc3C)cc12	-5	0.3
